# Bioassay records as filed in PubChem BioAssay.
# 2A firefly: lowers the firefly signal of an FMDV 2A StopGo reporter; HEK cells with a luciferase reporter of 2A StopGo recoding; Potency, µM (highest dose often 57.5 µM), inactives show at the highest dose signal change, negative = less light; 0.23% of 120,000 active; AID 1745856; active = well fitted falling curve with a large enough effect; inconclusive = small, poorly fitted or top-dose-only effect; inactive = no such curve, though single readings can be large or run the other way; also: nearly all actives have a fitted effect of over 60% in size; overnight with compound
# StopGo RLuc: lowers the Renilla signal of an FMDV 2A StopGo reporter. Potency, µM (top dose mostly 57.5 µM), for the others: at the highest dose signal change, negative = less light. AID 1745857. HEK cells with a luciferase reporter of 2A StopGo recoding. 0.32% of 120,000 active; active means well fitted falling curve with a large enough effect; inconclusive means small, poorly fitted or top-dose-only effect; inactive means no such curve, though single readings can be large or run the other way; also: nearly all actives have a fitted effect of over 55% in size; overnight with compound
# Numbers without * were called inactive; ? = inconclusive; [ ] = another dose, or the depositor's remark. % is scaled to controls: 0 for no effect and ±100 for the full control effect; potency is read from the fitted curve at half-maximal effect.
SMILES,2A firefly,StopGo RLuc
O=c1oc2ccccc2cc1-c1nc(-c2ccccc2)cs1,12%,-16%
CCCOc1cccc(CN)c1,-5%,-5%
O=C(NCCc1csc(-c2ccc(C(F)(F)F)cc2)n1)c1ccccc1Cl,-20%,15%
O=c1c(N2CCN(c3ccc(F)cc3)CC2)csc2ccc(F)cc12,11%,57%[activator]
CC(C(=O)NC1(C#N)CCCCC1)N(C)Cc1ccc(C(F)(F)F)cc1 (stereo not given),6%,-15%[1.06 µM]
CCCc1ccc(NC(=O)Cc2n[nH]c(=O)c3ccccc23)cc1,-7%,-28%
CCn1c(CC(=O)Nc2ccccc2F)nnc1SCC(=O)Nc1ccccc1F,-5%,0%
C=CCN1[C@H](Cc2ccccc2)COc2cccc(N3CCCC3)c2S1(=O)=O,0%,50%[activator]
CN1CCN(c2csc3ccc(F)cc3c2=O)CC1,10%,46%[activator]
COc1cccc(NC(=O)Cc2c(C)c3ccc(OC)cc3oc2=O)c1,2%,3%
Cc1ccc(NC(=O)c2ccc3c(c2)NC(=O)c2ccccc2S3)cc1,?,6.3µM*
CCOC(=O)c1ccc(N2C(=O)Cc3cc(OC)c(OC)cc3C2c2ccc(OCC)cc2)cc1 (stereo not given),3%,15%
N#Cc1ccccc1OCC(=O)NC1(C#N)CCCC1,-1%,3%
Cc1ccc2c(c1)-c1cc(C)nn1C(c1cc(Br)ccc1O)N2 (stereo not given),70%[activator],-12%
Cc1ccc(-c2nc(NC(=O)CSc3ncnc4sc5c(c34)CCC(C)C5)ns2)cc1 (stereo not given),24%,-5%
CCCCCCC(C)NC(=O)N1CCN(c2ncc(C(F)(F)F)cc2Cl)CC1 (stereo not given),8%,12%
COC(=O)CSc1n[nH]c(=O)c2cc(-c3ccc(OC)c(OC)c3)nn12,32%[activator],2%
Cc1c(C(=O)NCC(c2ccccc2)N(C)C)oc2ccc(F)cc12 (stereo not given),23%,-18%
COc1ccc(CCNC(=O)c2ccc3c(c2)CCN3S(C)(=O)=O)cc1OC,1%,-4%
Cc1ccc(S(=O)(=O)C(CNC(=O)C(=O)NCCc2ccccc2)c2ccco2)cc1 (stereo not given),-18%,1%
Clc1ccc(CN2CCN(Cc3nnsc3Cl)CC2)cc1,5%,-3%
COC(=O)c1sc(S(=O)(=O)Nc2cccc(Cl)c2Cl)c(C(=O)OC)c1C,-5%,?
CCC(=O)N1CCc2cc(Br)cc(S(=O)(=O)CCC(=O)N3CCN(c4cccc(C(F)(F)F)c4)CC3)c21,-6%,-14%
Cc1cccc(C(=O)OC(C)C(=O)NC(=O)NC2CCCCC2)c1O (stereo not given),61%[activator],34%
CCOc1ccc(CCNC(=O)C2Cc3ccccc3N2C(=O)CC)cc1 (stereo not given),-10%,-9%
SMILES,2A firefly,StopGo RLuc
Fc1c(F)c(C(F)(F)F)c(F)c(F)c1N/N=C/c1ccc(Cl)cc1Cl,11%,-11%
CC(=O)NCCNC(=O)c1cc(C)nc2ccc(C)cc12,7%,-7%
c1ccc2c(c1)OCCOCCOCCOc1ccccc1OCCO2,-2%,-7%
Cc1c(C)n(CCCN(C)C)c2ncn3nc(-c4cccs4)nc3c12,79%[activator],-3%
COc1cc(-c2csc(NC3CC3)n2)cc(OC)c1OC,16%,5%
CC(C)c1ccc(NC(=O)CN2C=NS(=O)(=O)c3ccccc32)cc1,-10%,-10%
CCOc1ccc(/C=C/C(=O)c2cc3ccc(OC)cc3oc2=O)cc1OC,12%,10%
O=C(c1ccc(F)cc1)n1nc(-c2ccccc2)nc1NCc1ccco1,233%[activator],10%
CCN(CC)C1=NC(=O)C(CC(=O)Nc2cccc(C(=O)NCCc3ccccc3OC)c2)S1 (stereo not given),37%[activator],26%
Cc1ccc(-c2ccc(=O)n(CC(=O)NC(C)c3ccccc3)n2)cc1 (stereo not given),-21%,-15%
CC(C)Cn1c(SC(C)C(N)=O)nnc1-c1ccco1 (stereo not given),-1%,20%
COc1cc(OC)c(NC(=O)C2=C(C)C(=O)OC23CCCCC3)cc1Cl,17%,-3%
O=C(COC(=O)C1CCOCC1)c1ccc2c(c1)OCO2,3%,4%
Cc1cc2nc(/C(C#N)=C\c3ccc(OCC(C)C)cc3)[nH]c2cc1C,0%,8%
Cc1oc(-c2ccccc2)nc1C(=O)N1CCN(C)CC1c1ccccc1 (stereo not given),-10%,-3%
COCCCn1c(=O)c2sccc2n2c(CCCC(=O)NCc3cccc(OC)c3)nnc12,-12%,-6%
O=C(c1ccc2c(c1)N(Cc1ccccc1F)C(=O)c1ccccc1S2=O)N1CCC(Cc2ccccc2)CC1 (stereo not given),-4%,-1%
O=C(NCc1ccccc1Br)c1ccc2nc(N3CCCCC3)sc2c1,0%,8%
CC1=C(C(=O)N2CCOCC2)C(c2ccccc2Cl)C2=C(CCCC2=O)N1 (stereo not given),0%,-1%
O=C(COC(=O)C(Cc1ccccc1)N1C(=O)C2C3CC(C(Br)C3Br)C2C1=O)c1ccc([N+](=O)[O-])cc1 (stereo not given),17%,8%
COc1ccccc1N1CCN(C(=O)CSc2nc3ccccc3nc2Cc2ccccc2)CC1,-13%,-7%
CN(CC(N)=O)C(=O)CCc1ncc(-c2c(F)cccc2F)o1,71%[activator],-10%
COc1ccc(-c2cn3c(n2)sc2cc(C(=O)Nc4ccc(C)cc4C)ccc23)cc1,60%[activator],-14%
COc1ccc(-c2nnc(SCc3cn4cccc(C)c4n3)o2)cc1OC,-5%,-12%
Cc1c(-c2ccccc2)c(=O)oc2ccc(OC(=O)c3ccccc3)cc12,-11%,-5%
SMILES,2A firefly,StopGo RLuc
COc1ccc(-n2nc3c(N4CCC(C(=O)NCc5ccccc5C)CC4)nnc(C)c3c2C)cc1,0%,39%[activator]
O=C(NN=C1CCCCCC1)c1nc(-c2ccccc2)n(-c2ccccc2)n1,6%,-2%
O=C(OCc1cc(=O)oc2cc(O)ccc12)c1ccc(F)cc1,114%[activator],-11%
FC(F)(F)c1ccc(Cl)c(N/N=C/c2ccccc2)c1,18%,11%
CNC(=O)c1ccc(NC(=O)c2cccc(N(C)C)c2)cc1,219%[activator],10%
CC(Sc1nnc(-c2ccco2)n1-c1ccccc1)C(=O)Nc1ccc(Cl)cn1 (stereo not given),-11%,6%
COC(=O)c1c(NC(=O)CCCOc2ccccc2C)sc2c1CCC2,-6%,10%
Cc1csc(SCC(=O)O)n1,-3%,8%
Cc1nc2ccc(C(=O)NC3CCCCNC3=O)cc2nc1C (stereo not given),104%[activator],-1%
CCOc1ccc(-n2c(SC(C)C(=O)OC)nc3c([nH]c4ccccc43)c2=O)cc1 (stereo not given),-25%,-18%
O=C1c2[nH]nc(-c3ccccc3O)c2C(c2ccccc2F)N1Cc1cccnc1 (stereo not given),-6%,-3%
CC(C)c1ccc(NC(=O)C(NS(=O)(=O)c2ccc3c(c2)CCC(=O)N3)c2ccccc2)cc1 (stereo not given),21%,2%
Cc1ccc(CNC(=O)Cc2ccsc2)cc1,134%[activator],11%
Cc1ccc(O)c(NC(=O)c2cc(-c3ccccc3O)no2)c1,90%[activator],9%
CCOc1ccc(-c2n[nH]c3c2C(c2ccccc2OC)N(c2ccc(Br)cc2)C3=O)cc1 (stereo not given),-7%,-7%
O=C(COc1cc(Cl)cc(Cl)c1)NC1CC1,18%,11%
Cc1ccc(S(=O)(=O)NC2(C(F)(F)F)NC(=O)N(c3ccc(F)cc3)C2=O)cc1 (stereo not given),-5%,-8%
Cc1c(CC(=O)N2CCN(c3ccccc3)CC2)c(=O)oc2c(C)c(O)ccc12,0%,-3%
COc1ccc(C)cc1NS(=O)(=O)c1c(C)nc2sc(C)cn2c1=O,-7%,71%[activator]
COc1ccc(OC)c(-c2cc3ccc(OCC#N)cc3oc2=O)c1,0%,95%[activator]
COc1cccc(NC(=O)c2cc(=O)c3ccccc3o2)c1,20%,19%
CCOc1ccc(CNC(=O)c2ccc3c(c2)nc2n3CCC(C)C2)cc1OC (stereo not given),32%,-8%
COc1ccc(C(=O)Nc2cc(S(=O)(=O)c3ccc(Cl)cc3)c(O)c(C)c2C)cc1,87%[activator],156%[activator]
CN(C)CCCOC(=O)c1cc(C(C)(C)C)cc(C(C)(C)C)c1,-14%,-20%
COc1ccccc1C(=O)Nc1nnc2n1CCS2,147%[activator],-2%
SMILES,2A firefly,StopGo RLuc
O=C(Nc1ccc(-c2ccccc2)cc1)c1c[nH]c2ccccc12,177%[activator],-14%
Cc1ccc(Cn2c(C)c(CNCC(C)c3ccccc3)c(C(=O)O)c2C)cc1 (stereo not given),-23%,-9%
Cc1ccccc1OCc1nc(C#N)c(NCc2ccc3c(c2)OCO3)o1,0%,14%
Cc1cc(=O)oc2cc(OCC(=O)NC(C)(C#N)C(C)C)ccc12 (stereo not given),0%,-11%
CC(Oc1ccccc1)C(=O)OCc1nc(N)nc(N)n1 (stereo not given),0%,-5%
CN(C)CCCNc1oc(-c2ccc(S(=O)(=O)N3CCCCCC3)cc2)nc1C#N,-14%,48%[activator]
N#Cc1ccccc1OCc1cccc2ccccc12,59%[activator],-24%
Nc1c(C(=O)NCc2ccc(Cl)cc2Cl)nnn1Cc1ccc(Br)cc1,-12%,-10%
CC1=NN(C(=O)CSCc2ccc(F)cc2Cl)C(O)(C(F)(F)F)C1 (stereo not given),2%,26%
O=C(O)COc1ccc2c(=O)c(-c3ccccc3)coc2c1,-32%,7%
Cc1[nH]c2ccccc2c1C(=O)C(=O)N(C)C1CCS(=O)(=O)C1 (stereo not given),-14%,-20%
O=C(N/N=C/c1ccccc1[N+](=O)[O-])c1ccc(NS(=O)(=O)c2cccs2)cc1,?,30%
CCOc1ccc(CCNC(=O)c2ccc3c(c2)nc2n3CCOC2)cc1OCC,-14%,-13%
CCc1cnc2c(c1SCc1c(F)cccc1Cl)c(=O)n(C)c(=O)n2C,-10%,-12%
NC(=O)C1CCN(C(=O)c2cc3ccccc3[nH]2)CC1,0%,45%[activator]
CCCSCCCNC(=O)C1CCN(c2nc3ccccc3nc2C(F)(F)F)CC1,1%,-7%
CCCc1nc2nc(C)c(NS(=O)(=O)c3ccc(CC(C)C)cc3)c(=O)n2[nH]1,-19%,-13%
COc1ccc(Br)c2c1-c1nc(NC(=O)c3ccc(F)cc3)sc1C2,-1%,3%
O/N=C/c1ccc(-n2cccn2)cc1,58%[activator],-5%
Cc1cc(C)c(NC(=O)CCn2c(=O)c3cccn3c3ccccc32)c(C)c1,-18%,8%
NC(=O)C1CCN(C(=O)Cn2ccc3c(Br)cccc32)CC1,-9%,-12%
NC(=O)CCN1CCN(S(=O)(=O)c2ccc(F)c(F)c2)CC1,0%,-13%
COc1ccc(NC(=O)c2ccccc2)c2cccnc12,15%,20%
CCNC(=O)C1CCCN(c2nn3cc(-c4ccc(C)cc4)nc3s2)C1 (stereo not given),?,-18%
COc1ccc(OCC(=O)n2nc(C)c(S(=O)(=O)N3CCc4ccccc4C3)c2C)cc1,6%,84%[activator]
Cc1ccc(-n2ncc(C(=O)NCCN3CCCC3)c2C2CCN(C(=O)OC(C)(C)C)CC2)cc1C,-19%,13%
CNC(=O)c1cc2n(n1)CCCN(Cc1ccc(F)cc1)C2=O,-3%,-7%
COc1ccc(CNC(=O)Cn2nc(C)n3cccc3c2=O)cc1,0%,15%
Cc1c(CC(=O)N2CCN(c3ccc(F)cc3)CC2)c(=O)oc2cc(O)ccc12,-12%,-15%

# Some of the compounds tested (hit frequency here may not be typical).
